# Screening data deposited in PubChem by ICCB-Longwood Screening Facility, Harvard Medical School.
# KSHV LANA nucl – LANA-nucleosome interaction inhibition; FITC-LANA1-23 / chicken nucleosome fluorescence polarization; hits give low values; z-score (concentration not given with the values); 0.3% of 51,000 active;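 active = both repeat wells score below -2 in polarization z-score versus plate sample wells, excluding overly bright wells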;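 note: 100 nL library stock added to about 30 µL; numbers are from one replicate; some results filed as inactive read as strong as hits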
#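 Test system: purified chicken nucleosomes with FITC-labelled LANA N-terminal peptide (1-23); Input: 240 nM purified chicken nucleosomes (480 nM peptide binding sites), final; Medium: TEN-BT buffer, pH 7.5; Timing: 10–45 min, room temperature; Technique: fluorescence polarization, 480 nm excitation, 535 nm parallel and perpendicular emission; Replication: duplicates.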
# BasE inh – blocks the Acinetobacter baumannii siderophore enzyme BasE. purified BasE, fluorescence polarization binding displacement. inhibition, % (concentration not given with the values). 0.1% of 84,000 active. AID 485350;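 active = both replicates above 25% with normal brightness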;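 note: 0% = negative plate control signal and 100% = positive plate control signal; stock transfer was 100 nL into about 30 µL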
# Active calls of the source: *; . = not tested or not shown.
SMILES,KSHV LANA nucl,BasE inh
Nc1nc(NC(=O)CCC(=O)O)nn1-c1ccccc1,-0.071,4.2
CN1CCN(Nc2ncnc3sc4c(c23)CCCC4)CC1,.,-1.1
CCn1c(-c2cc(Br)cc(OC)c2O)nc2cc(S(=O)(=O)N(C)C)ccc21,.,-0.3
O=C(Nc1ccccn1)C1CCCN1S(=O)(=O)c1ccc(Cl)cc1 (stereo not given),-0.39,1.1
CC(=O)Nc1ccc(-c2ccc(NC(C)=O)cc2)cc1,.,2.4
Cc1cc2c(c(=O)n1C)C(c1ccc(C(C)C)cc1)C(C#N)=C(N)O2 (stereo not given),-0.084,-1.6
CCCCNc1ccc(C(F)(F)F)cn1,-0.17,4.6
CCC(O)c1nc2ccccc2n1C (stereo not given),-0.57,0.5
CC(=O)N=C1SC2CS(=O)(=O)CC2N1c1ccc2c(c1)OCO2 (stereo not given),-1.1,2.2
CC(C)N1C(=O)C2C(c3ccco3)NN(Cc3ccccc3)C2C1=O (stereo not given),0.85,3.6
CC1CN(CC(=O)N(c2ccc(Nc3ccccc3)cc2)C(C)C)CC(C)O1 (stereo not given),.,0.3
CCCCC[C@H](O)C/C=C1/C(=O)C=C[C@@H]1C/C=C\CCCC(=O)O,1.4,-1.6
O=C(COC(=O)c1cc2ccccc2oc1=O)c1ccccc1,.,1.4
CNC(C)c1nc2ccccc2s1 (stereo not given),.,2.5
Cc1nnc(SCc2ccc(C#N)cc2)s1,-0.83,2.1
O=C(O)c1cn(-c2ccc(F)c(F)c2)c2c(F)c(F)c(F)c(F)c2c1=O,-0.35,-3.2
Oc1c(Br)cc(Cl)cc1/C=N/c1ccccn1,-1.2,3.0
Cn1cccc1/C=C1/SC(=S)N(c2ccc(C(=O)O)cc2)C1=O,-0.2,-37
CSc1sc(C#N)c2c1C(=O)CC(c1ccccc1)C2 (stereo not given),.,-0.8
O=C(NCc1ccccc1)NC(c1ccccc1)c1nnc(-c2ccccc2)o1 (stereo not given),0.34,1.2
CCN(C(=O)/C=C/c1ccc(C(F)(F)F)cc1)C1CCS(=O)(=O)C1 (stereo not given),.,3.3
O=C(O)C1CCCN(C(=O)c2cccc3ccccc23)C1 (stereo not given),.,0.8
Cc1ccc(C(=O)CSc2ncn(-c3ccccc3)n2)c(C)c1,-0.16,-2.4
CCOc1ccc(-c2cc(CCCC(=O)NCc3cccc(OC)c3)no2)cc1,-0.53,-1.6
COc1ccc2ccccc2c1CN1CCN(C(=O)c2ccccc2F)CC1,-0.53,1.7
O=C1C2C3c4ccccc4C(c4ccccc43)C2C(=O)N1Cc1ccco1 (stereo not given),1.4,-2.3
O=C(OCN1C(=O)c2ccccc2C1=O)c1ccc(Cl)cc1,0.97,0.3
CN(CCOc1ccccc1)c1ccc(S(=O)(=O)N2CCCCC2)cn1,.,-0.1
COCCNC(=S)N1CCCC(CO)C1 (stereo not given),0.46,-0.6
O=S(=O)(c1c(F)cccc1F)N1CCCC2CCCCC21 (stereo not given),.,0.5
CCc1ccc2occ(CC(=O)Nc3ccc(F)cc3)c2c1,-0.46,-0.1
CC(=O)N1CCC(=NNC(=O)c2cccc(S(=O)(=O)Nc3ccccc3Cl)c2)CC1,.,1.6
O=C(Nc1c(C(=O)N2CCN(Cc3ccccc3)CC2)oc2ccccc12)c1ccccc1,.,-0.1
O=C(OCc1nc2ccsc2c(=O)[nH]1)c1ccc(N2CCCC2=O)cc1,.,-0.8
CC1CN(C(=O)COC(=O)c2ccc(NC(=O)CC#N)cc2)CC(C)O1 (stereo not given),.,-0.9
O=S(=O)(c1ccccc1)n1cnc2ccccc21,-0.52,4.3
CCN1CC(O)=C(c2ccccc2)C1=N,-0.054,0.6
CN(C)c1ccc(CN(CC2CCCO2)C(=O)COc2ccccc2)cc1 (stereo not given),0.11,1.5
O=C(COc1ccc2oc3ccccc3c2c1)NCCc1ccccn1,.,4.6
COc1ccc(CC(CC(=O)O)C(=O)NCc2ccccc2)cc1 (stereo not given),-0.35,0.1
COC(=O)c1c(SC)[nH]c2ccccc2c1=O,0.35,0.6
Cn1c(=NC(=O)C2=NNC(=O)CC2)sc2ccccc21,.,4.2
Cc1ccccc1-c1nc(C#N)c(NC2CCCCC2)o1,-0.89,3.3
O=C1Nc2ccccc2/C1=N\N=C\C1=C(N2CCOCC2)C(=C\c2ccccc2)/CC1,.,-0.8
CC(=O)N(c1ccccc1)c1nc(COC(=O)/C=C/c2cccs2)cs1,.,-3.9
O=C(CCCn1c(=O)[nH]c2ccsc2c1=O)Nc1ccc(F)cc1,0.26,1.0
Fc1ccc(CSC(=S)N2CCN(C(=S)SCc3ccc(F)cc3)CC2)cc1,.,1.1
COc1cccc(OCC2CCCNC2)c1 (stereo not given),0.74,2.2
N#CC(c1ccc2c(c1)OCO2)N1CCN(C(C#N)c2ccc3c(c2)OCO3)CC1 (stereo not given),0.051,-0.9
C=CCNC(=O)c1c(N)n(/N=C/c2ccccc2O)c2nc3ccccc3nc12,-0.62,.
Brc1ccc(Cn2ncc3ccccc32)cc1,0.37,0.7
Cn1c(SCC(=O)c2ccc(Cl)s2)nnc1C1COc2ccccc2O1 (stereo not given),.,-7.2
CCN1C(=O)c2ccc(Oc3ccc4c(c3)C(=O)N(CC)C4=O)cc2C1=O,-0.051,1.3
CCC1CC(/C(C)=N/NC(N)=O)OC1=O (stereo not given),0.2,0.2
COc1ccc(NC(=O)c2ccco2)cc1NC(=S)NC(=O)Cc1ccccc1,-0.33,0.1
Cc1cnc(C(=O)OCC(=O)N2C(C)CCCC2C)cn1 (stereo not given),.,3.2
O=C(CN1CCCC1)Nc1ccc(I)cc1,0.48,.
Cc1ccc(OCC(=O)NC2CC(C)(C)NC(C)(C)C2)c(C)c1,.,-1.5
NC(=O)CSc1nc2c(c(=O)n1CCc1ccccc1)SCC2,-0.35,0.7
Cc1nc2ccccc2c(=O)n1NC(=O)/C=C/c1ccccc1,.,-2.4

# In the list so far, 6 contain an aryl methoxy group:
SMILES,KSHV LANA nucl,BasE inh
CCn1c(-c2cc(Br)cc(OC)c2O)nc2cc(S(=O)(=O)N(C)C)ccc21,.,-0.3
CCOc1ccc(-c2cc(CCCC(=O)NCc3cccc(OC)c3)no2)cc1,-0.53,-1.6
COc1ccc2ccccc2c1CN1CCN(C(=O)c2ccccc2F)CC1,-0.53,1.7
COc1ccc(CC(CC(=O)O)C(=O)NCc2ccccc2)cc1 (stereo not given),-0.35,0.1
COc1cccc(OCC2CCCNC2)c1 (stereo not given),0.74,2.2
COc1ccc(NC(=O)c2ccco2)cc1NC(=S)NC(=O)Cc1ccccc1,-0.33,0.1

# Compound profiles, from the list above.
# C=CCNC(=O)c1c(N)n(/N=C/c2ccccc2O)c2nc3ccccc3nc12 in the list: KSHV LANA nucl = -0.62; BasE inh = .
# Cn1c(SCC(=O)c2ccc(Cl)s2)nnc1C1COc2ccccc2O1 (stereo not given) in the list: KSHV LANA nucl = .; BasE inh = -7.2
# Cc1nc2ccccc2c(=O)n1NC(=O)/C=C/c1ccccc1 in the list: KSHV LANA nucl = .; BasE inh = -2.4

# Further structures.
SMILES,KSHV LANA nucl,BasE inh
CCOc1cc(N2CCOCC2)c(OCC)cc1NC(=O)CSc1ncccn1,.,0.6
CC(C)(C)CC(C)(C)NS(=O)(=O)c1ccc(F)cc1,0.35,-0.5
C=CCN(C(=O)Cc1nc(-c2ccc(OC)cc2)no1)c1ccccc1,1.1,-1.4
CCc1ccc(/C=C(/C#N)C(=O)OC)s1,-0.7,2.3
O=C(OCc1cn2cc(Cl)ccc2n1)C1COc2ccccc2O1 (stereo not given),.,2.2
COc1ccc(C(CNC(=O)Cc2cccs2)N(C)C)cc1 (stereo not given),.,2.0
COc1cc(S(=O)(=O)N2CCCc3ccccc32)c(OC)cc1C,1.9,0.8
O=C1N=C2C=CC=CN2C(=O)C1Cc1ccccc1 (stereo not given),0.6,-1.6
O=C(CC1SC(=NC2CC3C=CC2C3)NC1=O)Nc1ccc(Cl)cc1 (stereo not given),0.92,-0.1
CC(C)NC(=O)CN1C(=O)c2cccc3cccc1c23,-0.57,3.7
Oc1ccc(Cl)cc1-c1csnn1,0.37,-1.2
Cc1cccc(N(C(=O)c2csnn2)C(C(=O)NC2CCCCC2)c2ccco2)c1 (stereo not given),-0.3,1.6
O=C(O)CNC(=O)c1ccc(F)cc1,.,2.8
O=C(CN1CCC(C(=O)c2ccccc2)CC1)NCc1cccs1,-0.043,-1.3
CNC(=O)NNc1nccc(-c2cccnc2)n1,0.64,-1.2
O=S(=O)(c1ccc(N2CCOCC2)cc1)N1CCOCC1,0.26,-1.6
N#CC(C(=O)c1ccco1)=C1SCCCS1,0.39,1.2
Cc1ccc(-c2nc(CS(=O)CC(=O)Nc3c(C)cccc3C)c(C)o2)cc1 (stereo not given),0.53,0.6
CCCCOc1ccccc1C(=O)N(Cc1ccco1)Cc1sccc1C,0.41,1.4
Cc1c(N)n[nH]c1-c1cccs1,-0.17,-1.9
CN1CCN(C(=S)SCc2nc(N)nc(Nc3ccccc3)n2)CC1,-1.1,1.5
O=C1NC(=O)C(c2ccccc2[N+](=O)[O-])=C1Nc1ccc(O)c(Cl)c1,-0.59,0.9
CSc1ncc(C(=O)O)cn1,-0.48,-0.1
Cc1ccc(OC(C)C(=O)Nc2nonc2-c2ccc(Cl)cc2)cc1C (stereo not given),1.6,-2.1
Cc1cc(C)c(C(N)=O)c(N2CCN(c3ccccc3)CC2)n1,.,-0.4
Nc1nccc(-c2ccc(NC(=O)Nc3ccccc3)cc2)n1,.,1.2
COC(=O)c1sccc1OCc1nnc(-c2ccc(OC)cc2)o1,-1.2,-1.1
O=C1C(Cc2ccccc2)NC(=S)N1CC1CCCO1 (stereo not given),.,4.0
COc1ccc(-c2nc3ccccc3c(C(N)=O)c2C)cc1,-0.87,0.7
COc1ccc(C(=O)CCC(=O)N2CCN(c3ccccc3)CC2)cc1,0.49,3.0

# A draw from above in order of number of heavy atoms, high to low.
SMILES,KSHV LANA nucl,BasE inh
Cc1ccc(OC(C)C(=O)Nc2nonc2-c2ccc(Cl)cc2)cc1C (stereo not given),1.6,-2.1
CN1CCN(C(=S)SCc2nc(N)nc(Nc3ccccc3)n2)CC1,-1.1,1.5
Cc1cc(C)c(C(N)=O)c(N2CCN(c3ccccc3)CC2)n1,.,-0.4

# Further entries.
SMILES,KSHV LANA nucl,BasE inh
CC(C)CSc1nnc2n(-c3ccccc3)c(=O)c3ccccc3n12,.,-3.4
C(=C\c1ccccc1)/CNCC1CCCO1 (stereo not given),0.25,1.4
O=C(O)c1cccc2c1C(=O)N(C1CCCC1)C2,0.73,0.7
COc1ccc2oc(=N)c(-c3nc4ccccc4[nH]3)cc2c1,.,3.1
N#C/C(=C\c1ccc(N2Cc3ccccc3C2)cc1)C(=O)NCc1ccco1,-0.35,0.5
O=C(Cc1ccccc1)NC(=S)Nc1ccccc1O,1.1,-3.9
O=C1c2ccccc2C(=O)N1CN(CCCn1ccnc1)CN1C(=O)c2ccccc2C1=O,0.053,3.6
O=C(CSCc1ccccc1)Nc1nccs1,0.096,2.5
O=C(O)CSCC(=O)N1CCCC1,0.69,-3.0
O=C(O)CCC(=O)Nc1cccc(C(=O)c2ccccc2)c1,0.23,2.1
COc1ccc(C)cc1S(=O)(=O)N1CCN(C(=O)c2ncoc2-c2cccc(C)c2)CC1,-0.83,-0.5
COC(=O)/C(=C(/O)CSc1nnc(Cc2csc(C)n2)o1)c1nc2ccccc2[nH]1,.,-0.6
FC(F)(F)c1cccc(N2CCN(C(=S)Nc3ccc4c(c3)OCO4)CC2)c1,0.68,-0.2
O=c1ccc(OCCOc2ccccc2)nn1-c1ccccc1,0.39,-4.0
CCOC(=O)C1=C(CC)Nc2ccccc2N=C1N=Cc1c(O)n(CC)c(=S)n(CC)c1=O,.,-2.2
Cc1ccccc1CSc1nnc(Cn2c(=O)sc3ccccc32)n1C,1.3,0.2
N#Cc1ccc(/C=N/c2oc(-c3ccco3)c(-c3ccco3)c2C#N)cc1,.,4.3
CN1CCCN(C(=O)c2csc3ccccc23)CC1,-0.17,0.6
COc1ccc(CCN2C(=O)C(C)SC2c2ccc(C#N)cc2)cc1OC (stereo not given),.,0.1
O=S1(=O)CCC(S(=O)(=O)NC2CCCC2)C1 (stereo not given),-1,1.6
O=C(NCC1COc2ccccc2O1)c1nn(-c2ccccc2)c(=O)c2ccccc12 (stereo not given),.,-2.3
N#Cc1cccc(OCC(=O)c2ccc[nH]2)c1,.,-2.2
Cc1cnc(C(=O)Nc2ccc(N3CCN(C(=O)OC(C)(C)C)CC3)cc2)cn1,-1.6,0.5
CCn1c2ccccc2c2cc(NC(=O)C(C)OC(=O)c3cccn3C)ccc21 (stereo not given),.,2.1
N#C/C(=C\c1cn(CC(=O)N2CCCC2)c2ccccc12)C(=O)NCc1ccc2c(c1)OCO2,-0.73,-5.0
CCN(CC(=O)NCc1ccc(F)cc1)C(=O)C1CC1C (stereo not given),.,-0.5
CCN(CC)c1nc(N2CCOCC2)nc(N2CC(=O)N(c3ccccc3)C2=N)n1,1.5,-5.0
CCCOc1ccc(C(=O)c2nc3c(n2O)CCCCC3)cc1,-0.31,0.5
Cc1cccc(NC(=O)c2ccccc2NC(=O)CN2CSCC2=O)c1,.,-2.1

# An excerpt; count on the stated rates, not on these rows.
